# Screening data: PubChem, Broad Institute
# UUG fidelity – modulators of start codon recognition fidelity in yeast. S. cerevisiae UUG-firefly luciferase reporter, luminescence/redox ratio. activity score, % at 18.7 µM. 350,000 compounds, 0.13% hits. AID 602363;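 active = replicate mean at a twofold rise or more, about +100% in these data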;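 note: firefly luciferase made from a UUG start codon reports start codon fidelity; reporter light over untreated wells divided by growth signal over untreated wells; some hits fall short of that in this replicate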
# HIV Env fusion – HIV envelope-mediated fusion inhibition. 360,000 compounds, 1.1% hits. AID 651610. HeLa-JRFL Env/CEM21 cell fusion, luciferase. inhibition, % at 12.3 µM;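 active = mean replicate inhibition score of at least 50 and every replicate individually at or above 50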;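 note: 0% = plate neutral controls and 100% = maraviroc near 300 nM; one replicate is shown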
# Starred values were filed as active, the others as inactive; [ ] = dose if it differs, or a comment.
HIV Env fusion	UUG fidelity	molecule
-10[16.7 µM]	18	CN(C)C(=O)C[C@H]1CC[C@H]2[C@H](COc3ccc(NC(=O)c4ccc(F)c(F)c4)cc3C(=O)N2C)O1
-2[16.7 µM]	18	C[C@@H]1CN([C@@H](C)CO)C(=O)c2cccc(N(C)C)c2O[C@H]1CN(C)C(=O)Nc1ccc(C(F)(F)F)cc1
5[16.7 µM]	-1	C[C@@H]1CN([C@H](C)CO)C(=O)c2cc(NC(=O)CCC(F)(F)F)ccc2O[C@@H]1CN(C)Cc1ccc2c(c1)OCO2
-9[16.7 µM]	-14	C[C@@H]1CN([C@H](C)CO)C(=O)Cc2cc(NS(=O)(=O)c3ccc(Cl)cc3)ccc2O[C@@H]1CN(C)C(=O)Nc1ccc(F)cc1
2[16.7 µM]	-4	O=S(=O)(N[C@@H]1CC[C@H](CCn2cc(C3(O)CCCC3)nn2)O[C@@H]1CO)c1ccc(Cl)cc1
-11[16.7 µM]	-2	C/C=C/c1ccc2c(c1)O[C@@H](CN(C)C(=O)Nc1ccc(F)cc1)[C@H](C)CN([C@@H](C)CO)S2(=O)=O
-14[16.7 µM]	0	C/C=C/c1cnc2c(c1)C(=O)N([C@H](C)CO)C[C@@H](C)[C@H](CN(C)Cc1ccccc1F)O2
15[16.7 µM]	6	CC(C)C(=O)Nc1ccc2c(c1)C(=O)N(C)[C@H]1CC[C@H](CC(=O)NCc3cccc(F)c3)O[C@H]1CO2
-8[16.7 µM]	18	C[C@@H]1CN([C@H](C)CO)C(=O)Cc2cc(NC(=O)Nc3ccc(C(F)(F)F)cc3)ccc2O[C@H]1CN(C)C(=O)Nc1ccccc1
-3[16.7 µM]	0	N#C[C@@H]1[C@@H](c2ccc(C#Cc3ccc(F)cc3)cc2)[C@H](CO)N1C(=O)C1CCCC1
-18[16.7 µM]	-8	C[C@H](CO)N1C[C@H](C)[C@H](CN(C)S(=O)(=O)c2ccccc2F)Oc2cc(C#Cc3ccccc3)ccc2S1(=O)=O
-9[16.7 µM]	3	CN(C)CC(=O)N1[C@@H](C#N)[C@@H](c2ccc(-c3ccccc3F)cc2)[C@@H]1CO
14[16.7 µM]	-4	O=C(C[C@@H]1CC[C@H](NC(=O)Nc2ccc3c(c2)OCO3)[C@@H](CO)O1)NCc1ccc2c(c1)OCO2
-5[16.7 µM]	-7	O=C(C[C@H]1CC[C@@H]2NC[C@H](O)COC[C@H]2O1)NCc1ccc2c(c1)OCO2
-1[16.7 µM]	12	CN(C)CC(=O)Nc1ccc2c(c1)[C@@H]1C[C@@H](CC(=O)NCc3ccc4c(c3)OCO4)O[C@@H](CO)[C@@H]1O2
-2[16.7 µM]	1	C[C@@H]1CN([C@H](C)CO)C(=O)c2cc(NC(=O)Cn3cnnn3)ccc2O[C@H]1CN(C)C(=O)Nc1ccc(F)cc1
-9[16.7 µM]	-16	CC(C)NC(=O)N(C)C[C@H]1Oc2ccc(NS(=O)(=O)c3cccs3)cc2CC(=O)N([C@H](C)CO)C[C@@H]1C
24[16.7 µM]	31	C[C@@H]1CN([C@@H](C)CO)C(=O)c2cc(NC(=O)NC3CCCCC3)ccc2O[C@@H](C)CCCCO[C@H]1CN(C)C(=O)CCCN(C)C
-2[16.7 µM]	-4	C[C@H](CO)N1C[C@H](C)[C@H](CN(C)S(=O)(=O)c2cccs2)OCCCC[C@H](C)Oc2ccc(NC(=O)c3ccncc3)cc2C1=O
10[16.7 µM]	-8	C[C@@H]1CN([C@@H](C)CO)C(=O)Cc2cc(NC(=O)Nc3ccccc3)ccc2O[C@@H]1CN(C)S(=O)(=O)c1cn(C)cn1
-11[16.7 µM]	8	COCC(=O)N1[C@H](C#N)[C@H](c2ccc(C3=CCCCC3)cc2)[C@@H]1CO
-2[16.7 µM]	-6	COc1ccc(NC(=O)N[C@@H]2CC[C@H](CCNC(=O)Cc3ccncc3)O[C@H]2CO)cc1
-41[16.7 µM]	-1	C[C@@H]1CN([C@@H](C)CO)C(=O)Cc2cc(NC(=O)C3CCCCC3)ccc2O[C@@H]1CN(C)Cc1ccc(Cl)c(Cl)c1
7[16.7 µM]	-2	CC(C)NC(=O)N(C)C[C@@H]1Oc2ccc(NC(=O)CCCCCC(=O)Nc3ccccc3N)cc2CC(=O)N([C@@H](C)CO)C[C@H]1C
-61[16.7 µM]	0	C[C@H](CO)N1C[C@H](C)[C@H](CN(C)C(=O)C2CC2)Oc2ncc(-c3ccc(C(=O)N(C)C)cc3)cc2C1=O

# An excerpt from above in order of molecular weight, highest first.
HIV Env fusion	UUG fidelity	molecule
15[16.7 µM]	6	CC(C)C(=O)Nc1ccc2c(c1)C(=O)N(C)[C@H]1CC[C@H](CC(=O)NCc3cccc(F)c3)O[C@H]1CO2
-10[16.7 µM]	18	CN(C)C(=O)C[C@H]1CC[C@H]2[C@H](COc3ccc(NC(=O)c4ccc(F)c(F)c4)cc3C(=O)N2C)O1
-11[16.7 µM]	8	COCC(=O)N1[C@H](C#N)[C@H](c2ccc(C3=CCCCC3)cc2)[C@@H]1CO

# The results go on:
HIV Env fusion	UUG fidelity	molecule
-25[16.7 µM]	-3	C[C@H](CO)N1C[C@H](C)[C@@H](CN(C)Cc2ccc(C(F)(F)F)cc2)Oc2c(NC(=O)C3CC3)cccc2C1=O
11[16.7 µM]	1	C[C@H]1CN([C@@H](C)CO)C(=O)Cc2cc(NS(=O)(=O)c3ccccc3)ccc2O[C@@H]1CN(C)S(=O)(=O)c1ccccc1
2[16.7 µM]	6	C[C@H]1CN([C@@H](C)CO)C(=O)c2cc(C#CCN(C)C)cnc2O[C@H]1CN(C)S(C)(=O)=O
-10[16.7 µM]	17	CCC(=O)Nc1ccc2c(c1)C(=O)N(C)[C@@H]1CC[C@@H](CC(=O)NCC3CCCCC3)O[C@H]1CO2
4[16.7 µM]	-3	C[C@@H]1CN([C@@H](C)CO)C(=O)c2cc(C3=CCCCC3)cnc2O[C@@H]1CN(C)C(=O)c1ccccc1
-9[16.7 µM]	2	CCCNC(=O)N(C)C[C@H]1Oc2ncc(-c3cccc(C#N)c3)cc2C(=O)N([C@@H](C)CO)C[C@H]1C
-2[16.7 µM]	-13	CC(C)C#Cc1ccc([C@H]2[C@@H](C#N)N(C(=O)C3CCC3)[C@H]2CO)cc1
0[16.7 µM]	10	CCC(=O)N(C)C[C@@H]1Oc2ncc(C#C[C@H](C)O)cc2C(=O)N([C@H](C)CO)C[C@@H]1C
10[16.7 µM]	-10	C[C@H](CO)N1C[C@H](C)[C@H](CN(C)Cc2ccncc2)Oc2ncc(C#CC3CCCCC3)cc2C1=O
23[16.7 µM]	-9	C[C@H](CO)N1C[C@H](C)[C@H](CN(C)C(=O)Cc2ccccc2)OCCCC[C@H](C)Oc2ccc(NS(=O)(=O)c3ccc(Cl)cc3)cc2C1=O
-55[16.7 µM]	8	C[C@H](CO)N1C[C@H](C)[C@@H](CN(C)C)Oc2cc(C#CC(C)(C)O)ccc2S1(=O)=O
0[16.7 µM]	-8	O=c1n(-c2ccccc2)c(=O)n2n1CC(COc1ccccc1)=C1[C@@H](c3ccccc3)OB(O)C[C@@H]12
34[16.7 µM]	-14	CCC(=O)Nc1ccc2c(c1)OC[C@H](C)N(Cc1cccc(F)c1)C[C@H](C)[C@@H](OC)CN(C)C2=O
-15[16.7 µM]	-2	COc1ccc(NC(=O)Nc2ccc3c(c2)C(=O)N([C@H](C)CO)C[C@@H](C)[C@H](CN(C)S(=O)(=O)c2ccc(F)cc2)O3)cc1
-41[16.7 µM]	19	C[C@@H]1CN([C@H](C)CO)C(=O)c2cc(NS(=O)(=O)c3ccc(F)cc3)ccc2O[C@H]1CN(C)Cc1ccccc1
-6[16.7 µM]	-14	C=CCNC(=O)[C@@H]1[C@H]2C(=O)O[C@H](c3ccccc3)[C@H](c3ccccc3)N2[C@H](c2ccccc2OCCO)[C@@]12C(=O)N(C(=O)OCCOC)c1ccc(C#CCC(C(=O)OC)C(=O)OC)cc12
-17[16.7 µM]	-13	C[C@H]1CN([C@@H](C)CO)C(=O)c2cc(-c3cccc(F)c3)cnc2O[C@@H]1CN(C)Cc1ccccn1
1[16.7 µM]	-10	C[C@@H]1CCCCO[C@@H](CN(C)Cc2ccc3c(c2)OCO3)[C@H](C)CN([C@H](C)CO)C(=O)c2cc(NC(=O)Nc3cccc4ccccc34)ccc2O1
5[16.7 µM]	-13	CCS(=O)(=O)Nc1ccc2c(c1)C(=O)N(C)C[C@@H](OC)[C@H](C)CN[C@H](C)CO2
9[16.7 µM]	-11	COc1ccc(S(=O)(=O)Nc2ccc3c(c2)CC(=O)N([C@@H](C)CO)C[C@H](C)[C@H](CN(C)C(=O)Nc2ccc(C(F)(F)F)cc2)O3)cc1
3[16.7 µM]	-2	CN1C(=O)c2cc(NC(=O)C3CCOCC3)ccc2OC[C@@H]2O[C@@H](CC(=O)NCc3ccccc3F)CC[C@H]21
-2[16.7 µM]	-2	C[C@@H]1CCCCO[C@H](CN(C)Cc2ccncc2)[C@H](C)CN([C@H](C)CO)C(=O)c2cc(NC(=O)c3ccccc3)ccc2O1
-10[16.7 µM]	-15	Cc1noc(C)c1NC(=O)Nc1cccc2c1O[C@@H](CN(C)CC1CC1)[C@H](C)CN([C@H](C)CO)C2=O
-3[16.7 µM]	4	O=C(NCC[C@H]1CC[C@@H](NC(=O)c2ccccc2F)[C@H](CO)O1)c1ccc2c(c1)OCO2
6[16.7 µM]	-16	COc1ccc(S(=O)(=O)N[C@@H]2CC[C@H](CC(=O)O)O[C@H]2CO)cc1

# A portion of the results above:
HIV Env fusion	UUG fidelity	molecule
-3[16.7 µM]	4	O=C(NCC[C@H]1CC[C@@H](NC(=O)c2ccccc2F)[C@H](CO)O1)c1ccc2c(c1)OCO2
6[16.7 µM]	-16	COc1ccc(S(=O)(=O)N[C@@H]2CC[C@H](CC(=O)O)O[C@H]2CO)cc1

# Retrieved one by one from the entries so far:
HIV Env fusion	UUG fidelity	molecule
24[16.7 µM]	31	C[C@@H]1CN([C@@H](C)CO)C(=O)c2cc(NC(=O)NC3CCCCC3)ccc2O[C@@H](C)CCCCO[C@H]1CN(C)C(=O)CCCN(C)C
5[16.7 µM]	-1	C[C@@H]1CN([C@H](C)CO)C(=O)c2cc(NC(=O)CCC(F)(F)F)ccc2O[C@@H]1CN(C)Cc1ccc2c(c1)OCO2
-10[16.7 µM]	18	CN(C)C(=O)C[C@H]1CC[C@H]2[C@H](COc3ccc(NC(=O)c4ccc(F)c(F)c4)cc3C(=O)N2C)O1

# Continued:
HIV Env fusion	UUG fidelity	molecule
-31[16.7 µM]	-2	O=C(C[C@@H]1CC[C@H](NC(=O)CN2CCOCC2)[C@H](CO)O1)NC1CCCCC1
13[16.7 µM]	14	C[C@@H]1CCCCO[C@H](CN(C)C(=O)Cc2ccccc2)[C@H](C)CN([C@@H](C)CO)C(=O)c2cc(NC(=O)C3CCCCC3)ccc2O1
16[16.7 µM]	5	C[C@@H]1CN([C@H](C)CO)C(=O)c2cc(-c3cccnc3)cnc2O[C@H]1CN(C)Cc1ccc(-c2ccccc2)cc1
-12[16.7 µM]	-3	O=C(C[C@H]1C=C[C@H](NS(=O)(=O)c2cccc(F)c2)[C@@H](CO)O1)NCc1ccc2c(c1)OCO2
-12[16.7 µM]	9	C[C@@H]1CCCCO[C@@H](CN(C)C(=O)NC2CCCCC2)[C@@H](C)CN([C@H](C)CO)C(=O)c2cc(NC(=O)CCCN(C)C)ccc2O1
-53[16.7 µM]	-4	C[C@@H]1CCCCO[C@@H](CN(C)C(=O)NC2CCCCC2)[C@@H](C)CN([C@H](C)CO)C(=O)c2cc(NS(=O)(=O)c3ccc(Cl)cc3)ccc2O1
8[16.7 µM]	-19	N#C[C@H]1[C@H](c2ccc(C#Cc3cccc(F)c3)cc2)[C@@H](CO)N1C(=O)C1CCC1
8[16.7 µM]	-4	C[C@H](CO)N1C[C@H](C)[C@@H](CN(C)Cc2ccc(C(=O)Nc3ccccc3N)cc2)Oc2ccc(NC(=O)CCN3CCOCC3)cc2CC1=O
3[16.7 µM]	-3	COCC(=O)Nc1ccc2c(c1)[C@@H]1C[C@@H](CC(=O)NCc3ccc(Cl)cc3)O[C@@H](CO)[C@@H]1O2
-20[16.7 µM]	-1	COc1cccc(-c2cnc3c(c2)C(=O)N([C@H](C)CO)C[C@@H](C)[C@@H](CN(C)C(=O)CC2CC2)O3)c1
-8[16.7 µM]	-9	Cc1noc(C)c1NC(=O)N(C)C[C@H]1Oc2ccc(NS(=O)(=O)c3cn(C)cn3)cc2CC(=O)N([C@H](C)CO)C[C@@H]1C
11[16.7 µM]	-2	C[C@@H]1CN([C@H](C)CO)C(=O)c2cccc(NC(=O)Nc3ccc(F)cc3)c2O[C@H]1CN(C)CC1CC1
10[16.7 µM]	9	O=C1C[C@@](C(=O)NCCN2CCOCC2)(c2ccc([N+](=O)[O-])cc2)[C@@H](c2ccc(CO)cc2I)N1CC12CC3CC(CC(C3)C1)C2
-8[16.7 µM]	-1	O=C(CN1CCOCC1)NCC[C@@H]1CC[C@@H](NC(=O)Cc2ccccn2)[C@H](CO)O1
2[16.7 µM]	7	C[C@@H]1CN([C@@H](C)CO)C(=O)c2cc(C#CC3CCCC3)cnc2O[C@H]1CN(C)C(=O)c1ccncc1
29[16.7 µM]	4	Cc1ccccc1-c1cnc2c(c1)C(=O)N([C@H](C)CO)C[C@H](C)[C@@H](CN(C)C(=O)c1ccc(F)cc1)O2
2[16.7 µM]	6	Cc1noc(C)c1S(=O)(=O)N(C)C[C@H]1OCCCC[C@H](C)Oc2ccc(NS(=O)(=O)c3cccs3)cc2C(=O)N([C@H](C)CO)C[C@H]1C
-13[16.7 µM]	1	Cc1noc(C)c1S(=O)(=O)Nc1ccc2c(c1)CC(=O)N([C@H](C)CO)C[C@@H](C)[C@@H](CN(C)CC1CC1)O2
-403[16.7 µM]	-7	CC(C)c1cn(CC[C@H]2CC[C@@H](NC(=O)c3cccc(F)c3)[C@H](CO)O2)nn1
12[16.7 µM]	14	C[C@H]1CN([C@@H](C)CO)C(=O)c2cccc(NC(=O)C3CCOCC3)c2O[C@@H]1CN(C)Cc1ccc(Oc2ccccc2)cc1

# These rows are one share of the data; the hit share may differ from the screen's.
